Source: PubChem BioAssay (National Center for Advancing Translational Sciences (NCATS))
hNpr1 antagonist = antagonists of human natriuretic peptide receptor Npr1. P16066. HEK293 hNpr1 GloSensor cGMP, ANP-stimulated luminescence. Potency, µM (doses to about 46.3 µM), inactives show top-dose activity change, negative = inhibition, hits mostly inhibitors. 1.6% of 76,000 active; active = well fitted inhibition curve with a large enough effect; inconclusive = small, poorly fitted or top-dose-only effect; inactive = no such curve, though single readings can be large or run the other way;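 note: nearly all actives have a fitted effect of over 60% in size; nearly all hits also lower the signal before the agonist is added; a reference antagonist and vehicle were the controls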
Target sequence (P16066 whole entry, looked up): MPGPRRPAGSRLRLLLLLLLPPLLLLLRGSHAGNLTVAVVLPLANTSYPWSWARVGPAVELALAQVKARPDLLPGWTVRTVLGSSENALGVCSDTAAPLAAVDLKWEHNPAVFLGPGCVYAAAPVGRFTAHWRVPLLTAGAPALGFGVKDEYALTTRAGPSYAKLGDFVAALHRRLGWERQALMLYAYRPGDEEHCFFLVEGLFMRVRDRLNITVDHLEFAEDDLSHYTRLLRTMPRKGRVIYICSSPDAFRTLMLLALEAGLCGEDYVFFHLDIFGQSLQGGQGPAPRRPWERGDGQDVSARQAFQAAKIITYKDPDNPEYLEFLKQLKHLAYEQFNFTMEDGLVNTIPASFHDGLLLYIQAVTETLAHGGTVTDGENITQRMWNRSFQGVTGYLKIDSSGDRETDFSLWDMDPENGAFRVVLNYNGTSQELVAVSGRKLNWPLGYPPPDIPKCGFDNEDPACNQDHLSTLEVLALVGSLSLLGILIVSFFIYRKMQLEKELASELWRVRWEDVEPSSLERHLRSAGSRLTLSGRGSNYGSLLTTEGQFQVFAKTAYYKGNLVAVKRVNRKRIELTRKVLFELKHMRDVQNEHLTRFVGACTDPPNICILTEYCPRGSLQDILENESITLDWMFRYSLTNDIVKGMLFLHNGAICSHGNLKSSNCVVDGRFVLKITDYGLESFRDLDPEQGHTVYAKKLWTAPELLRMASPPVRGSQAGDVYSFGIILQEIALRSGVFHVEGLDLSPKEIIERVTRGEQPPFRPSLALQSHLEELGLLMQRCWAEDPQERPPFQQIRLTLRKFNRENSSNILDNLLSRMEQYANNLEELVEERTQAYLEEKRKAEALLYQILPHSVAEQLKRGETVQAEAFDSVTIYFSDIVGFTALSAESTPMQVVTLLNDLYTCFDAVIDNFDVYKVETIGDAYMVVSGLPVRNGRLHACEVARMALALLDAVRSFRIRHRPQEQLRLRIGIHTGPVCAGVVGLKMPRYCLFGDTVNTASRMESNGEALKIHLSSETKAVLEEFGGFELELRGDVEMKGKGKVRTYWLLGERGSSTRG
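HEK293 cells stably expressing human Npr1 and cGMP GloSensor pGS-40F, loaded 2 h with 2% GloSensor reagent, given compound 30 min at room temperature. Luminescence read before and 20 min after 0.1 nM hNppA.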
* = called active by the depositor; ? = inconclusive; [ ] = dose if it differs, or a comment. % is set by controls: 0 for no effect and ±100 for the full control effect; potency is the fitted concentration of half-maximal effect. Some of the compounds tested (hit frequency here may not be typical).

SMILES	hNpr1 antagonist
COCC1CN(C(C)=O)CC12CCN(C(=O)CCc1cccc(OC)c1)CC2 (configuration not stated)	1.6%
O=C(c1ccccc1)N1CCc2sc(C(=O)N3CCN(c4ccccn4)CC3)cc2C1	?
COc1ccccc1N1CCN(CC[C@H]2CN(C(=O)NC(C)C)CC[C@H]2CC(=O)O)CC1	9.6%
COCCC1(NC(=O)C2CC2)CCN(S(C)(=O)=O)CC1	4.7%
CC(C)C(=O)Nc1ccc(C2(C(=O)NCc3cccnc3)CCCCC2)cc1	5.6%
COC(=O)c1cc(N2CCC(C(C)N3CCN(C)CC3)CC2)ncn1 (configuration not stated)	5.9%
COc1cccc(-c2ccc(NC(=O)C3CCCN(C(=O)CC(F)(F)F)C3)cc2)c1 (configuration not stated)	15.8µM*
Cc1cnc(C(=O)N[C@@H]2CCC[C@@H]2C(=O)N2CCC(Cc3ccccc3)CC2)cn1	3.4%
Cc1nnc([C@@H]2CC(F)(F)CN2S(=O)(=O)c2cccc(F)c2)o1	2.1%
CCCS(=O)(=O)N1CCC(N2CC(OC)C23CCOCC3)CC1 (configuration not stated)	-1.8%
Cc1cc(C)c(C(=O)N(CC2CCN(C3Cc4ccccc4C3)CC2)CC2CCCO2)o1 (configuration not stated)	5.9%
COCC(=O)N1CCN2C(=O)c3cc(-c4ccc(OC)cc4)ccc3NC(=O)[C@H]2C1	1.1%[70.6 µM]
CCc1ccccc1S(=O)(=O)N1CCC(N(C(=O)COC)C2CCOCC2)CC1	-13.8%
O=C1CC(c2ccccc2)N(C(=O)CNC(=O)c2cccnc2)CCCCCN1 (configuration not stated)	4.6%
Cc1nnc([C@@H]2CC(F)(F)CN2C(=O)c2nccc3ccccc23)o1	2.0%
O=C(NCc1nnc2ccc(-c3ccccc3)nn12)c1ccc(F)c(F)c1	-3.2%
C=CCCC(CN1CCCC1)Oc1ccc(C(=O)N2CCCC2)cn1 (configuration not stated)	0.0%
CCOC(=O)CCNC(=O)N1CCC(N2C(=O)C3(CCCC3)C2c2scnc2C)CC1 (configuration not stated)	1.4%
COC(=O)CNC(=O)c1nc(-c2ccc(F)cc2)c2ccccn12	3.4%[70.6 µM]
CN1C(=O)CCC2(CNC(=O)c3nccn3C)CCC=C12 (configuration not stated)	-0.4%

Four entries picked at random from the list so far:
SMILES	hNpr1 antagonist
COC(=O)c1cc(N2CCC(C(C)N3CCN(C)CC3)CC2)ncn1 (configuration not stated)	5.9%
O=C(NCc1nnc2ccc(-c3ccccc3)nn12)c1ccc(F)c(F)c1	-3.2%
COC(=O)CNC(=O)c1nc(-c2ccc(F)cc2)c2ccccn12	3.4%[70.6 µM]
CCOC(=O)CCNC(=O)N1CCC(N2C(=O)C3(CCCC3)C2c2scnc2C)CC1 (configuration not stated)	1.4%

Rewritten with each value named: entries from further up
> Cc1cc(C)c(C(=O)N(CC2CCN(C3Cc4ccccc4C3)CC2)CC2CCCO2)o1 (configuration not stated)
  hNpr1 antagonist = 5.9%
> Cc1nnc([C@@H]2CC(F)(F)CN2C(=O)c2nccc3ccccc23)o1
  hNpr1 antagonist = 2.0%
> CCOC(=O)CCNC(=O)N1CCC(N2C(=O)C3(CCCC3)C2c2scnc2C)CC1 (configuration not stated)
  hNpr1 antagonist = 1.4%
> Cc1cnc(C(=O)N[C@@H]2CCC[C@@H]2C(=O)N2CCC(Cc3ccccc3)CC2)cn1
  hNpr1 antagonist = 3.4%

Continued:
SMILES	hNpr1 antagonist
CN(C(=O)c1ccc2nc(-c3ccc(F)cc3)cn2c1)C1CCOCC1	6.3%
O=C(c1cc(Br)cn2ccnc12)N1CCC(N2CCCNC2=O)CC1	3.2%
CC(=O)N1CCc2[nH]cnc2C12CCN(C(=O)Cn1nccc1C)CC2	4.9%
Cc1ccc2nc(SCCC(=O)N[C@@H]3C[C@@H]4OCC[C@@H]43)cc(C)c2c1	1.0%
CC(=O)NC[C@H]1O[C@@H](CC(=O)N(C)Cc2ccccc2)[C@H](O)[C@@H]1O	2.9%[70.6 µM]
O=C(Cc1ccc2c(c1)OCC2)Nc1ccc2c(c1)C(=O)N1CCC[C@H]1C(=O)N2	3.1%
C#CCNC(=O)[C@H]1O[C@H](CCN2CCN(Cc3ccccc3)CC2)CC[C@@H]1O	-5.2%[70.6 µM]
CC(C)c1noc(C2CCCN(C(=O)c3ccc4cccc(F)c4n3)C2)n1 (configuration not stated)	-1.1%
O=C(NCc1nnc2ccc(-c3ccc(Cl)cc3)nn12)c1cc(F)ccc1Cl	-15.8%
CCC(C(=O)NC1CCN(c2cnn(C)c(=O)c2)CC1)c1ccccc1 (configuration not stated)	-0.1%
COC(=O)C[C@@H]1CCN(C(=O)COc2ccccc2)C[C@@H]1CC1=NCCc2cc(OC)c(OC)cc21	4.1%
O=C(CN1C(=O)NC2(CCCCC2)C1=O)Nc1ccc(F)c(Cl)c1	-7.9%
COc1ccc(C(=O)N[C@H]2[C@H](O)[C@H](O)C[C@@H]2c2ccc(C(F)(F)F)cc2)cc1OC	-28.3%[70.6 µM]
O=C(NCCn1ccnc1-c1cc2n(n1)CCCNC2)c1ccncc1	-2.6%
Cc1cc(C[C@@H]2COC[C@@H]2NC(=O)c2ccc(-n3cnnc3)cc2)on1	-1.2%
COc1ccccc1CN1CC[C@H](c2nc3ccc(C(F)(F)F)cc3[nH]2)C1	0.9%[70.6 µM]
CCc1nc2c(c(-c3ccc(Cl)cc3)n1)CCN(Cc1cccnc1)CC2	0.0%
COCCn1ncc(N2CCCC(CC(=O)NCc3ccncc3)C2)cc1=O (configuration not stated)	1.0%
O=C(NC(C(=O)N1CCCC1)C1CCN(C(=O)Cc2ccccc2)CC1)c1ccccc1 (configuration not stated)	5.1%
CCCCOc1ccc(-c2nc(C3CC(=O)N(C4CCCCC4)C3)no2)cc1 (configuration not stated)	?
CCn1cc(S(=O)(=O)N2CCCCCCN(C)C(=O)[C@@H]3CCC[C@@H]32)cn1	1.7%
O=C1NCCCCCCN(Cc2ccncc2)[C@@H]2CN(C(=O)C3(c4ccccc4)CC3)CC[C@@H]12	-6.1%
CC1CCN(C(=O)CN2C(=O)NC(c3ccccc3)C3=C2COC3=O)CC1 (configuration not stated)	5.6%
COc1ccc(-c2ccnc(N[C@H]3CO[C@H]4[C@@H]3OC[C@@H]4NC(=O)Nc3cccc(C#N)c3)n2)cc1	-7.2%
COc1ccc(-c2nc(C)nc3c2CN(C(=O)c2ccc4c(c2)OCO4)CC3)cc1	9.0%
O=C(Nc1cccc(C(F)(F)F)c1)N[C@H]1CO[C@H]2[C@@H]1OC[C@H]2OC(=O)Nc1ccccc1	1.1%
O=C(NCCc1nc(-c2cccnc2)n[nH]1)C1NCCc2[nH]cnc21 (configuration not stated)	-0.3%
COc1cc(CN2CCc3nc(N4CCN(C)CC4)[nH]c(=O)c3CC2)cc(OC)c1	6.4%
O=C(NCC1CCOCC1)C1CC(=O)N(c2n[nH]c3cccc(F)c23)C1 (configuration not stated)	4.5%
O=C(c1cc(F)ccc1Cl)N1CCCC1c1nncn1Cc1ccncc1 (configuration not stated)	3.8%
CN1CCN(C(=O)[C@@H]2CCC[C@@H](NC(=O)c3ccc(Cl)cc3)CN(C)C(=O)C2)CC1	-1.9%[70.6 µM]
CCC1CN(C(=O)c2ccc3ccccc3n2)CCC(=O)N1Cc1ccccc1 (configuration not stated)	-0.2%
O=C(N[C@H]1[C@@H]2CCO[C@@H]2[C@@H]1C1CCCC1)c1ccccc1OC(F)F	2.2%
C=CCNC(=O)C(NC(=O)c1ccc(OC)cc1)C1CCN(C(=O)C2CC2)CC1 (configuration not stated)	1.9%
O=C(c1ccoc1)N1CCCC(c2noc(COc3ccccc3F)n2)C1 (configuration not stated)	-21.3%
Cc1noc(C)c1CCC(=O)NC1CCc2nnc(C)n2CC1 (configuration not stated)	-0.1%
Cc1ccc(C)c(C(=O)N2CCC(C3CCNC3)CC2)c1 (configuration not stated)	12.9%
CCNC(=O)N1CCCC1c1noc(CCC(=O)N(C)CCOC)n1 (configuration not stated)	-16.3%
Cc1cc2c(c(=O)n(-c3ccc(F)cc3)c(=O)n2CC(=O)Nc2ccc3c(c2)OCO3)n1C	-2.6%
O=C(N[C@@H]1CN(Cc2ccc3cc[nH]c3c2)C[C@H]1CO)c1ccccc1	-20.9%
CNC(=O)[C@@H]1CN(C(=O)c2ccc(F)c(F)c2)C[C@H]1COC	-13.4%
COCCNC(=O)[C@@H]1C[C@H](Oc2cccnc2)CN1C(=O)c1ocnc1C	-8.1%
CC(C)CCN1CC[C@@H]2OCC(=O)N(Cc3c[nH]c4ccccc34)[C@H]2CC1	-16.4%[70.6 µM]
O=C(c1ccc(CN2CCCCC2)cc1)N1CCOC2(CNCCOC2)C1 (configuration not stated)	3.3%
CC(C)N1C(=O)CO[C@H]2CN(C(=O)c3ccncc3)C[C@H]21	-2.8%[70.6 µM]
Cc1ccc(CN2CCc3nc(C(C)C)nc(-c4ccc(O)cc4)c3C2)cc1	1.2%
CNC(=O)[C@@H](C1CCCCC1)N1CCC[C@H]1C(=O)N(C)CCN(C)C	3.2%[70.6 µM]
Cc1ccc(CCNC(=O)c2ccc3c(c2)N(C)C2CCCCN2C3=O)cc1 (configuration not stated)	-0.3%
COCc1nc(C2CCN(C(=O)c3ccccn3)C2)no1 (configuration not stated)	0.7%
O=C(COc1ccccc1)Nc1ccc2ncnc(N3CCCCC3)c2c1	-12.0%
O=C(NCCc1ccccc1)N1CCC(c2noc(-c3ccncc3)n2)C1 (configuration not stated)	-14.6%
O=C1CCN(C(=O)[C@H](Cc2ccccc2)NC(=O)NC2CCCCC2)CCCOCCN1	3.1%
O=C(c1ccncc1)N1CCC2(CC1)CC(N(Cc1ccc(F)cc1)C1CC1)CCO2 (configuration not stated)	?
CC(C)c1ccc(NC(=O)O[C@@H]2CO[C@H]3[C@@H]2OC[C@@H]3NS(=O)(=O)Cc2ccccc2)cc1	2.4%
CN1CCC2(C1)CN(CC1CCOCC1)c1ccc(C(=O)NCCc3ccccc3)cc12 (configuration not stated)	7.5%[70.6 µM]
Cc1ccc(-c2nn(-c3cccc(F)c3)cc2CN(C)CCO)o1	3.9%
O=S(=O)(c1ccccc1)N1CCCC(CN2CCCC2)CC1 (configuration not stated)	-8.9%
Cc1cc(C(=O)NC2CC(C)(C)Cc3nc(C(C)(C)C)ncc32)n[nH]1 (configuration not stated)	2.7%
Cc1nc2scc(CC(=O)N3CCOCC3)n2c(=O)c1-c1cc(C)n(-c2ccc(F)cc2)n1	0.1%
O=C(c1ccccn1)N1CCCC(Cc2nc(C3CCOCC3)no2)C1 (configuration not stated)	-7.0%

(list continues)
SMILES	hNpr1 antagonist
Cc1noc(-c2ccn3c(CNC(=O)c4ccccc4Cl)nnc3c2)n1	-15.4%
O=C1[C@@H]2C[C@@H](CN2Cc2ccc(Cl)cc2)Oc2ccccc2N1Cc1ccccc1	?
CC(=O)N1CCCC(C(=O)NCCc2csc(-c3ccncc3)n2)C1 (configuration not stated)	-6.7%
CN1CC(=O)N(c2cccnc2)Cc2c1ncnc2N1CCCCC1	-3.4%[70.6 µM]
O=C(c1ccsc1)N1CCC2(CC1)CN(C1CCC1)CC2CO (configuration not stated)	5.5%
CC1CCC2(CC1)NC(=O)N(CC(=O)Nc1ccc(F)c(Cl)c1)C2=O (configuration not stated)	3.9%
O=C(Cc1ccccc1F)N1CCC(c2noc(-c3cccnc3)n2)C1 (configuration not stated)	6.0%
O=C(Cc1cccc(F)c1)N1CCN(C(=O)c2nnn3c2COC(c2ccccc2)C3)CC1 (configuration not stated)	-0.9%
COCCNC(=O)C(NC(=O)c1ccccc1Cl)C1CCN(C(=O)c2ccc(OC)cc2)CC1 (configuration not stated)	2.6%
CCNC(=O)N(C1CC1)C1CCOC2(CCN(C(=O)C3(c4ccccc4)CC3)CC2)C1 (configuration not stated)	2.4%
CCn1cc(C(=O)N2C[C@@H](COC)[C@H](C(=O)NC)C2)cn1	6.5%
COc1ccc(C(=O)N2CC(c3nnc(-c4ccc(C)cc4)o3)C3(CCOCC3)C2)c(C)c1 (configuration not stated)	0.1%
NS(=O)(=O)c1cccc(-n2ccnc2-c2cc3n(n2)CCCNC3)c1	5.5%
Cc1ccncc1C(=O)N1CCN(C(=O)N2CC3CC(C2)[C@H]2CCCC(=O)N2C3)CC1 (some centres not stated)	0.4%
Cc1cccc(-c2ccc3c(c2)C(=O)N2CC[C@H](NC(=O)c4cccs4)[C@H]2C(=O)N3)c1C	-7.2%
Cc1c(CN(C)CC2(O)CCCN(Cc3ccc(C(C)C)cc3)C2=O)cnn1C (configuration not stated)	2.3%
O=C(CCC1CCCN(S(=O)(=O)c2ccccc2F)C1)NCCN1CCOCC1 (configuration not stated)	2.0%
c1nnc(CC2CCCNC2)n1CC1CC1 (configuration not stated)	-2.9%
CCc1noc(CC2CCOC3(CCN(S(=O)(=O)c4ccccc4Cl)CC3)C2)n1 (configuration not stated)	?
COc1cccc(NC(=O)Cn2c(-c3cnccn3)nc(C)c(CCO)c2=O)c1	-10.3%
O=C(Cc1ccccc1Cl)N1CCCC(n2cc(-c3nc(-c4ccccc4)no3)nn2)C1 (configuration not stated)	?
CN1C(=O)c2cccn2CC1CNC(=O)Nc1ccc2c(c1)OCCO2 (configuration not stated)	2.5%
